HCMV UL50-53 inh: cytomegalovirus nuclear egress complex inhibition | HTRF UL50-UL53 interaction, normalized percent inhibition | inhibition, % (no concentration beside the values) | 190,000 tested, 0.15% active | AID 1918969;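 active = both replicates at 50% or more, plus weaker picks with an unusually low signal ratio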;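 note: stock transfer was 100 nL into about 20 µL; 0% = negative control wells and 100% = wells with untagged competitor protein; inactives centre near -12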
Sa growth inh: blocks Staphylococcus aureus growth | S. aureus RN4220 growth, OD600, 20 h, 42 °C; hits give low values | relative growth, % (no concentration beside the values) | 170,000 tested, 0.53% active | AID 720641;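 active = growth at 42 °C up to 50% and 20 or more points under that at 30 °C, or under 10% at both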;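 note: 300 nL library stock went into each well; scaled to the means of positive and negative controls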
GIV-Gai inh: GIV-Galpha-i interaction inhibition; AID 1224905; P08753; 210,000 tested, 0.42% active; percent of control (FP), % (concentration not given with the values); Galpha-i3/FITC-GIV peptide fluorescence polarization, 90 min; hits give low values; scaled: aluminum fluoride 0%, vehicle 100%;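 active = replicate mean at 85% of control or lower, very high polarization wells dropped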;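 note: wells of about 15 µL received 100 nL stock; the first replicate is given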
Target sequence (P08753 whole entry, looked up): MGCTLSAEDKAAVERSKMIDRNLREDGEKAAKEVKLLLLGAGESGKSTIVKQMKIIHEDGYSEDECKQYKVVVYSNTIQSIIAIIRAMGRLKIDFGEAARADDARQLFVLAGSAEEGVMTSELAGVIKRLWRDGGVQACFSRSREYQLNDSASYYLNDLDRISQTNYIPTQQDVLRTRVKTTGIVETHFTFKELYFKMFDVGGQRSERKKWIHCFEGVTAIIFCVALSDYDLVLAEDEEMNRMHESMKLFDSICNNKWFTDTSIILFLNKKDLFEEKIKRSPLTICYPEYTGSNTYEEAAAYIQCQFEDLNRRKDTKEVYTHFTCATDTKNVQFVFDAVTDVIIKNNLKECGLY
Sa growth inh second temp: recorded beside Sa growth inh, whose call it bears; relative growth, %; measured here: growth at 30 °C;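 optical density after 20 h as mean of two plates; 100% = untreated growth and lower means inhibition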
Active calls of the source: *; & = joins results of further samples.

`Cc1cccn2c(=O)c(C(=O)NCCc3ccccc3)c(O)nc12` gave HCMV UL50-53 inh -32.3, Sa growth inh 90.9, GIV-Gai inh 98.0 and Sa growth inh second temp 86.6.
`O=C(CSC1=NCCS1)NC1CCCCC1` gave HCMV UL50-53 inh -18.8, Sa growth inh 111.7 and Sa growth inh second temp 88.1.
`COc1ccc(-c2nonc2NC(=O)C(C)Oc2cc(C)c(Cl)c(C)c2)cc1C` (stereo not given) gave HCMV UL50-53 inh 23.6 and GIV-Gai inh 107.0.
Screening COc1ccc(Cc2cc(-c3cccs3)n[nH]c2=O)c(OC)c1OC returned HCMV UL50-53 inh -38.0, Sa growth inh 99.5, GIV-Gai inh 103.1 and Sa growth inh second temp 83.6.
`CCc1ccc(C2c3cccn3-c3c(c(C)nn3-c3ccccc3)CN2C(=O)NC)cc1` (stereo not given) gave HCMV UL50-53 inh -4.1 and GIV-Gai inh 96.8.
For CC(C)(C)c1ccc(C(=O)NC2=NC(c3cccc(F)c3)CC(=O)N2)cc1 (stereo not given) the results were HCMV UL50-53 inh -2.9, Sa growth inh 94.1, GIV-Gai inh 101.5 and Sa growth inh second temp 91.8.
`CN(C)S(=O)(=O)c1ccc2c(c1)nnn2CCCC(=O)N1CCN(c2ccccc2F)CC1` gave HCMV UL50-53 inh -4.1 and GIV-Gai inh 110.5.
For CC(C)c1nnc2sc(-c3cnccn3)nn12 the results were HCMV UL50-53 inh -24.7 and GIV-Gai inh 99.9.
Cc1noc(C)c1NC(=O)NCC1CCN(S(=O)(=O)c2ccccc2)CC1 was read as HCMV UL50-53 inh 8.4, Sa growth inh 95.3, GIV-Gai inh 109.1 and Sa growth inh second temp 92.7.
For CCCN(CC(=O)Nc1ccccc1OC)CC(=O)c1c(N)n(Cc2ccccc2)c(=O)n(C)c1=O the results were HCMV UL50-53 inh 2.5, Sa growth inh 109.3 and Sa growth inh second temp 102.8.
`O=C(Cn1cnc2ccccc21)N1CCCC1` gave HCMV UL50-53 inh -7.6, Sa growth inh 108.6, GIV-Gai inh 105.5 and Sa growth inh second temp 88.7.
For COc1ccccc1OCC#CCSc1ncccn1 the results were HCMV UL50-53 inh 6.6, Sa growth inh 94.4, GIV-Gai inh 107.5 and Sa growth inh second temp 99.4.
For CC(=O)c1ccc(OC(=O)c2c(-c3ccccc3Cl)noc2C)cc1 the results were HCMV UL50-53 inh 9.0, Sa growth inh 101.5, GIV-Gai inh 102.6 and Sa growth inh second temp 100.4.
Screening CC(O)CNC(C)C(=O)Nc1c(Cl)cc(Cl)cc1Cl (stereo not given) returned HCMV UL50-53 inh -6.5, Sa growth inh 78.2 and Sa growth inh second temp 91.2.
For CCOC(=O)c1sc(COc2ccccc2OC)nc1C the results were HCMV UL50-53 inh 8.0, Sa growth inh 95.4, GIV-Gai inh 104.9 and Sa growth inh second temp 102.0.

In the list so far, five contain an aryl methoxy group:
`COc1ccc(-c2nonc2NC(=O)C(C)Oc2cc(C)c(Cl)c(C)c2)cc1C` (stereo not given) gave HCMV UL50-53 inh 23.6 and GIV-Gai inh 107.0.
Screening COc1ccc(Cc2cc(-c3cccs3)n[nH]c2=O)c(OC)c1OC returned HCMV UL50-53 inh -38.0, Sa growth inh 99.5, GIV-Gai inh 103.1 and Sa growth inh second temp 83.6.
For CCCN(CC(=O)Nc1ccccc1OC)CC(=O)c1c(N)n(Cc2ccccc2)c(=O)n(C)c1=O the results were HCMV UL50-53 inh 2.5, Sa growth inh 109.3 and Sa growth inh second temp 102.8.
For COc1ccccc1OCC#CCSc1ncccn1 the results were HCMV UL50-53 inh 6.6, Sa growth inh 94.4, GIV-Gai inh 107.5 and Sa growth inh second temp 99.4.
For CCOC(=O)c1sc(COc2ccccc2OC)nc1C the results were HCMV UL50-53 inh 8.0, Sa growth inh 95.4, GIV-Gai inh 104.9 and Sa growth inh second temp 102.0.

The results go on.
For Cc1ccc(-c2nc(CN3CCN(C(=O)CC(C)C)CC3)c(C)o2)cc1 the results were HCMV UL50-53 inh -11.3 and GIV-Gai inh 106.9.
For O=C(NCc1cccc(Cl)c1)c1ccc(CN2C(=O)CSc3ncccc32)cc1 the results were HCMV UL50-53 inh 8.0 and GIV-Gai inh 105.3.
CC(C)(C)c1ccc(-c2nc3nc(CN4CCN(CCO)CC4)cc(=O)n3[nH]2)cc1 was read as HCMV UL50-53 inh -27.0 and GIV-Gai inh 100.0.
For COc1ccc(C2c3cccn3-c3sc4c(c3CN2C(=O)Nc2cc(OC)ccc2OC)CCN(C)C4)cc1 (stereo not given) the results were HCMV UL50-53 inh -8.2 and GIV-Gai inh 106.1.
Screening Cc1ccc(NCc2cccn2-c2nnc(N3CCC(C(=O)NCCC(C)C)CC3)s2)cc1 returned HCMV UL50-53 inh 11.9, Sa growth inh 109.6, GIV-Gai inh 103.1 and Sa growth inh second temp 93.9.
CCc1nnc(SCc2nc(-c3cccc(Cl)c3)oc2C)c2cc3sc(C)cc3n12 was read as Sa growth inh 105.6, GIV-Gai inh 106.5 and Sa growth inh second temp 91.3.
Screening O=C(NN1CCCCC1)C(O)(c1ccsc1)c1ccsc1 returned HCMV UL50-53 inh 1.3, Sa growth inh 100.7 and Sa growth inh second temp 91.5.
CC(C)(Oc1ccc(Cl)cc1)C(=O)Nc1ccc2oc(-c3cccnc3)nc2c1 was read as HCMV UL50-53 inh -3.8, Sa growth inh 108.0, GIV-Gai inh 105.1 and Sa growth inh second temp 94.2.
CCN/C(C)=C/c1nsc(Nc2ccc(Cl)cc2)n1 was read as HCMV UL50-53 inh 1.9, Sa growth inh 108.2, GIV-Gai inh 99.3 and Sa growth inh second temp 93.4.
`COc1cccc(N2CCN(C(=O)c3cnc4c(-c5ccc(F)cc5)c(C)nn4c3C)CC2)c1` gave Sa growth inh 93.1, GIV-Gai inh 99.9 and Sa growth inh second temp 62.0.
For CC1(C)CCc2cc(CN3CCN(c4ccc(C(F)(F)F)cn4)CC3)ccc2O1 the results were HCMV UL50-53 inh -16.0, Sa growth inh 91.9, GIV-Gai inh 102.1 and Sa growth inh second temp 86.6.
Screening Cc1cc(=O)n2[nH]c(SCc3ccc(Cl)cc3)nc2n1 returned HCMV UL50-53 inh 1.2, Sa growth inh 94.7, GIV-Gai inh 107.9 and Sa growth inh second temp 59.4.
Screening CCC(C)NC(=O)c1cc(-c2cccnc2)n(-c2ccccc2)n1 (stereo not given) returned HCMV UL50-53 inh -0.8 and GIV-Gai inh 108.4.
Screening C1CCN(CC2COC3(CCCC3)O2)C1 (stereo not given) returned HCMV UL50-53 inh -36.7, Sa growth inh 100.8 and Sa growth inh second temp 83.5.
`O=C(CCN1CCCCC1)c1cc2ccccc2o1` gave HCMV UL50-53 inh -46.7, Sa growth inh 54.1 and Sa growth inh second temp 31.4.
`c1ccc(SCc2nnc3sc(-c4c[nH]c5ccccc45)nn23)cc1` gave HCMV UL50-53 inh -3.5 and GIV-Gai inh 95.7.
`N#CC1=C(N)NC(SCc2ccccc2)=C(C#N)C1c1ccccc1Cl` (stereo not given) gave HCMV UL50-53 inh -10.2, Sa growth inh 61.2 and Sa growth inh second temp 26.3.
Screening CN(C)C(=O)c1cc(-c2ccccc2)c(C(F)(F)F)s1 returned HCMV UL50-53 inh -6.5, Sa growth inh 109.4, GIV-Gai inh 100.2 and Sa growth inh second temp 85.1.
For COc1ccc(N2CCN(C(=O)c3ccc(-n4cnnc4)cc3Cl)CC2)cc1 the results were HCMV UL50-53 inh -22.7, Sa growth inh 99.8, GIV-Gai inh 97.9 and Sa growth inh second temp 85.8.
`CCCC(=O)Nc1ccc2c(c1)nc(Cn1cccn1)n2CC` gave HCMV UL50-53 inh -6.1 and GIV-Gai inh 103.2.
For CCS(=O)(=O)N1CCCC(C(=O)NCCN(C)C)C1 (stereo not given) the results were HCMV UL50-53 inh 1.5, Sa growth inh 113.0, GIV-Gai inh 97.6 and Sa growth inh second temp 85.8.
O=C(NCc1ccccc1)C1CCCN1S(=O)(=O)c1cccc2cccnc12 (stereo not given) was read as HCMV UL50-53 inh 2.1, Sa growth inh 99.6, GIV-Gai inh 104.7 and Sa growth inh second temp 86.6.
Screening Cc1nn(C)c(C)c1NC(=O)CC12CC3CC(CC(C3)C1)C2 returned HCMV UL50-53 inh -43.7, Sa growth inh 97.7, GIV-Gai inh 104.0 and Sa growth inh second temp 97.0.
For C=CCn1cnnc1SCC(=O)NCc1cc(C)c(O)c(C)c1 the results were HCMV UL50-53 inh -0.8, Sa growth inh 100.0 and Sa growth inh second temp 93.9.
`Cn1c(O)c(C=Nc2cccc(Cl)c2)c2ccccc21` gave Sa growth inh 89.4, GIV-Gai inh 105.2 and Sa growth inh second temp 82.7.
CCN1CCCC1CNC(=O)Cn1c(=O)c2cccn2c2ccccc21 (stereo not given) was read as Sa growth inh 106.0, GIV-Gai inh 102.1 and Sa growth inh second temp 88.0.
`Cc1nn(CC(C)C)c2sc(C(=O)N3CCCC3c3nc4ccccc4s3)cc12` (stereo not given) gave HCMV UL50-53 inh -25.2, Sa growth inh 85.1 and Sa growth inh second temp 91.9.
For CCc1ccc(C(=O)Nn2cnnc2)cc1 the results were HCMV UL50-53 inh 4.6, Sa growth inh 111.5, GIV-Gai inh 107.9 and Sa growth inh second temp 109.3.
CCC(=O)Nc1cccc(NC(=O)CSc2nnnn2C2CCCC2)c1 was read as HCMV UL50-53 inh 8.7, Sa growth inh 106.1, GIV-Gai inh 100.5 and Sa growth inh second temp 96.9.
`CC(C)(C)OC(=O)N1CCCN(S(=O)(=O)c2cc(Cl)ccc2Cl)CC1` gave HCMV UL50-53 inh 0.3, Sa growth inh 83.7, GIV-Gai inh 105.5 and Sa growth inh second temp 85.4.
Screening CCOC(=O)c1cc(-c2ccc(OC)cc2)n(CCC(=O)NCc2ccc(OC)cc2)c1C returned Sa growth inh 105.5, GIV-Gai inh 100.9 and Sa growth inh second temp 80.2.
`C/C(=N\NC(=O)COc1ccc(C#N)cc1)c1ccc(N2CCOCC2)cc1` gave HCMV UL50-53 inh -14.6, Sa growth inh 100.5 and Sa growth inh second temp 88.8.
Screening CCc1cccc(NC(=O)C2CCCN(c3ncccn3)C2)c1 (stereo not given) returned HCMV UL50-53 inh -11.5, Sa growth inh 112.7, GIV-Gai inh 106.4 and Sa growth inh second temp 94.2.
For COc1ccc(-c2cc(=O)oc3c(C)c(O)ccc23)cc1 the results were HCMV UL50-53 inh 6.0, Sa growth inh 108.9, GIV-Gai inh 100.7 and Sa growth inh second temp 107.1.
`O=C(NC1CCCc2ccccc21)c1cc2n(n1)CCCN(Cc1cccc(F)c1)C2=O` (stereo not given) gave HCMV UL50-53 inh 0.8 and GIV-Gai inh 100.1.
COc1ccc(OCCOC(=O)c2ccc(OCc3c(C)noc3C)cc2)cc1 was read as HCMV UL50-53 inh -9.6, Sa growth inh 90.2 and Sa growth inh second temp 95.2.
For O=C(NCc1ccccc1Cl)c1cnccc1C(F)(F)F the results were HCMV UL50-53 inh 3.3, Sa growth inh 96.5, GIV-Gai inh 106.2 and Sa growth inh second temp 88.4.
O=C(NC1CCCCC1)C1CCC(Cn2c(=S)[nH]c3ccccc3c2=O)CC1 (stereo not given) was read as Sa growth inh 89.2, GIV-Gai inh 105.2 and Sa growth inh second temp 66.5.
`CC1Cc2ccccc2N1C(=O)CSc1ccccc1` (stereo not given) gave HCMV UL50-53 inh -27.6, Sa growth inh 108.7 and Sa growth inh second temp 91.7.
For COC(=O)c1sccc1NC(=O)c1cc(-c2ccccc2Cl)nc2ccccc12 the results were HCMV UL50-53 inh -5.9 and GIV-Gai inh 105.8.
For O=C(COc1ncnc2sccc12)N1CCc2ccccc21 the results were HCMV UL50-53 inh 3.9, Sa growth inh 101.7 and Sa growth inh second temp 93.8.
Screening COc1ccccc1-c1nnc(SCC(=O)c2ccc(F)cc2)n1-c1ccccc1 returned HCMV UL50-53 inh -20.0&-10.4, Sa growth inh 74.9, GIV-Gai inh 101.4&103.0 and Sa growth inh second temp 53.2.
For Cc1ccc2[nH]cc(CCN3CC(C(=O)Nc4nnc(C)s4)CC3=O)c2c1 (stereo not given) the results were HCMV UL50-53 inh -12.0 and GIV-Gai inh 100.7.
For Cc1cc(=O)[nH]c(N2CCCCC2)n1 the results were Sa growth inh 94.8, GIV-Gai inh 105.3 and Sa growth inh second temp 91.3.
`CCN(CC)S(=O)(=O)c1ccc(NC(=O)c2ccc3c(=O)n4c(nc3c2)CCCCC4)cc1` gave HCMV UL50-53 inh 5.3&-8.1, Sa growth inh 108.6, GIV-Gai inh 103.7&99.6 and Sa growth inh second temp 88.5.
For CCCSc1ccc2nc(NC(C)=O)[nH]c2c1 the results were HCMV UL50-53 inh 3.1, Sa growth inh 138.0, GIV-Gai inh 103.2 and Sa growth inh second temp 77.5.
Screening CN(C(=O)CSC1=NCCS1)C1CCCCC1 returned HCMV UL50-53 inh -27.0, Sa growth inh 100.0 and Sa growth inh second temp 88.2.
CSc1ccc(-c2ccco2)nn1 was read as Sa growth inh 85.1, GIV-Gai inh 96.7 and Sa growth inh second temp 72.4.
`CC(=O)Nc1ccc(C(=O)OCC(=O)N2CCCC(C)C2)cc1` (stereo not given) gave HCMV UL50-53 inh 10.7, Sa growth inh 97.2 and Sa growth inh second temp 98.0.
Screening O=S(=O)(c1ccc2c(c1)OCCO2)N1CCCCC1 returned HCMV UL50-53 inh -9.7, Sa growth inh 78.2 and Sa growth inh second temp 88.6.
Screening O=C(CC1C(=O)NCCN1C(=O)C1CC1)Nc1cccc(Cl)c1 (stereo not given) returned HCMV UL50-53 inh -25.5 and GIV-Gai inh 97.6.
For COc1cc(OC)c(NC(=O)COc2ccccc2-c2nnc(-c3ccccc3)o2)cc1Cl the results were Sa growth inh 83.3, GIV-Gai inh 102.8 and Sa growth inh second temp 87.2.

Assay outcomes: PubChem BioAssay, ICCB-Longwood Screening Facility, Harvard Medical School
